# Screens as filed in PubChem.
# TRPML1 inh: blocks the human TRPML1 channel; Q9GZU1; TRPML1-inducible cells, Ca2+ dye fluorescence, FDSS; hits give low values; inhibition of EC80 agonist-evoked calcium signal; activity change, negative = inhibition, % (no concentration beside the values); 390,000 compounds, 0.02% hits; AID 624415; in the data active means activity change below about -50%; inconclusive means about -30% to -50%; inactive means above about -30%;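 also: stimulus is agonist 54-4 at its EC80 concentration; % is scaled to controls: 0 for no effect and ±100 for the full control effect; compound concentration not given in the record; the text of the record puts the active cut at -80%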
# Target sequence (Q9GZU1 whole entry, looked up): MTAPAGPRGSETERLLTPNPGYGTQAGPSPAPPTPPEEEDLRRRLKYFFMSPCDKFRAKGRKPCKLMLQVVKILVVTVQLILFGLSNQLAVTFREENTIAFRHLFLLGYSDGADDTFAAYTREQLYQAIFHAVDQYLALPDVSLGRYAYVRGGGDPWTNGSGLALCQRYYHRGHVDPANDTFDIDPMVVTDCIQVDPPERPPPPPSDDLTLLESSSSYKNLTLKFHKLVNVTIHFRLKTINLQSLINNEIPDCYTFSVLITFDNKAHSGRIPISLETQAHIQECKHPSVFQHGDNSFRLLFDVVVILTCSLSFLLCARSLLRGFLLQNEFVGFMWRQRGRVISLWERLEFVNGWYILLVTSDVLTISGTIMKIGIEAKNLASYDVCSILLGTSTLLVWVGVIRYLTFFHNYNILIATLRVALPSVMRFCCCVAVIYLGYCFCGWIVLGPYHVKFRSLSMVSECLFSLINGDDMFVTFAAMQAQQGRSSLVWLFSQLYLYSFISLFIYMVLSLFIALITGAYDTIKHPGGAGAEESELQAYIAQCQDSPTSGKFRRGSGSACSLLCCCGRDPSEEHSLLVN
#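 Tet-induced TRPML1-DL cells loaded with Ca8 no-wash calcium dye were read kinetically on FDSS. Compound addition was followed by EC80 agonist 54-4 (4 uM final); inhibition was read over 110 s.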
# CtBP-E1A blk: inhibitors of CtBP/E1A interaction. AlphaScreen GST-E1A/His-CtBP binding, 1536-well; hits give low values; control for the full effect not named in the record. activity change, % (no concentration beside the values). 340,000 compounds, 0.49% hits; in the data active means activity change below about -65%; inconclusive means about -30% to -65%; inactive means above about -30%; also: % is scaled to controls: 0 for no effect and ±100 for the full control effect
#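 GST-E1A and His-tagged CtBP (125 nM each as 5X stock) were preincubated with pin-transferred compound for 2 h at 37 °C in the dark, then glutathione donor and nickel acceptor beads were added for 1 h before AlphaScreen reading.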
# Six1-Eya2 blk: inhibitors of human Six1/Eya2 interaction; AlphaScreen GST-Six1/His-Eya2 binding, biochemical; hits give low values; control for the full effect not named in the record; activity change, % (test concentration not listed); 360,000 compounds, 0.56% hits; in the data active = activity change below about -65%; inconclusive = about -30% to -65%; inactive = above about -30%; also: % is scaled to controls: 0 for no effect and ±100 for the full control effect
#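 GST-Six1 + His-Eya2 (5X stock: 250/500 nM); Tris pH 8.0, 300 mM NaCl, 0.05% BSA, 0.02% Tween 20; GSH donor/Ni acceptor beads; 1 h 37 °C dark; AlphaScreen readout.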
# TRPML1 ag: activates the human TRPML1 channel. TRPML1-expressing cells, Ca2+ dye fluorescence, FDSS; host cell line not named in the record; reference of the full effect not given here. activation, % (concentration not given with the values). 410,000 compounds, 0.12% hits. AID 624414; in the data active = activation above about 50%; inconclusive = about 30% to 50%; inactive = below about 30%; also: 0% is about no effect; the text of the record puts the active cut at 80%
#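 Agonist activity was taken from a 110 s kinetic Ca2+ dye read on the FDSS after pinning compounds onto TRPML1-DL cells. The cells were seeded at 1,500/well with Tet inducer, incubated about 16 h, then dye-loaded at room temperature.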
# PINK1 modulator: changes PINK1 expression; PINK1 immunofluorescence, high-content cytometry, 24 h; Potency, µM (series often up to 76.6 µM), without a hit: at the top dose activation (PINK1 increase), hits mostly activators; 410,000 compounds, 0.2% hits; active = well fitted activation curve with a large enough effect; inconclusive = small, poorly fitted or top-dose-only effect; inactive = flat fitted curve, though single readings scatter; cell line not stated here;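 also: potency is read from the fitted curve at half-maximal effect; % of control where 0% means no effect; nearly all actives have a fitted effect of over 65% in size; a mitochondrial uncoupler was the plate control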
#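 A stable cell line was treated with compounds at 5 concentrations for 24 hours, with CCCP as control. PINK1 levels and mitochondrial localization were measured by immunofluorescence with mitochondrial, cell and nuclear markers after fixation, read by laser-scanning cytometry.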
# D2 agonist: agonists of human D2 dopamine receptor (beta-arrestin); P14416; AID 624465; 360,000 compounds, 0.084% hits; activation, % (test concentration not listed); DiscoveRx PathHunter D2 beta-arrestin, luminescence, 90 min; 100% = 57 uM dopamine signal; in the data active = activation above about 40%; inconclusive = about 15% to 40%; inactive = below about 15%; also: compound concentration not given in the record; the text of the record calls up to 30% inactive
# Target sequence (P14416 whole entry, looked up): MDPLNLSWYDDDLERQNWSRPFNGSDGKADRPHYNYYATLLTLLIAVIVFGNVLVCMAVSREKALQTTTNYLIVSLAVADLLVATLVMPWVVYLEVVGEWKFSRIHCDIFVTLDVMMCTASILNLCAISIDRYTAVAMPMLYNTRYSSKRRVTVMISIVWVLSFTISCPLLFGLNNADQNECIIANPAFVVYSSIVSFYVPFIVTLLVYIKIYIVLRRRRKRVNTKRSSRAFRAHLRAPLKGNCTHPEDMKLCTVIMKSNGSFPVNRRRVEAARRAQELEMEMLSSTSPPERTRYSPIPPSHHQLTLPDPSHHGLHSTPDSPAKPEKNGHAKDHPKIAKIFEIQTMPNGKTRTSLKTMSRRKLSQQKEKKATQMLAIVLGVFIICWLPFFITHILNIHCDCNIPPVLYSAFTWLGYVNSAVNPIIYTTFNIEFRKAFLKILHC
#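 DiscoveRx PathHunter D2 beta-arrestin cells (2,100/well) attached overnight, then compound-stimulated 90 min at 37 C in HBSS/10 mM HEPES/0.1% Tween-20 buffer; beta-galactosidase complementation read by luminescence after 1 h at ambient temperature. Dopamine 57 uM final (EC100) as control.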
# Starred values were filed as active, the others as inactive; u = inconclusive; x = not tested or not shown; [ ] = remark or other dose.
# Results follow in this order: TRPML1 inh	CtBP-E1A blk	Six1-Eya2 blk	TRPML1 ag	PINK1 modulator	D2 agonist
CCOC(=O)C1(CCOC)CCN(C/C=C/c2ccccc2OC)CC1
 : 2	-2	-7	2.0	-4.0%	0.9
CC(=O)NC12CC3CC(C1)CC(C(=O)NCC(=O)Nc1c(C)cc(C)cc1C)(C3)C2
 : -7	-24	6	-0.5	0.3%	-0.9
COC1C(OC(=O)/C=C/C=C/C=C/C=C/C(=O)O)CCC2(CO2)C1C1(C)OC1CC=C(C)C (centres undefined) (tested in a mixture with another compound)
 : -9	11	-2	-0.2	-3.9%	-1.2
CCOC(=O)N1CCN(C(=O)C[C@@H]2C[C@@]3(C(=O)OC)CCCCC=C3N(Cc3cccc4ccccc34)C2=O)CC1
 : x	-9	-5	-0.9	0.6%	x
CC1(C(=O)NNC(=S)NCc2ccco2)CC1(Cl)Cl (centres undefined)
 : -19	-4	0	0.7	-1.1%	-1.8
COc1cc2cc(CN(Cc3nnnn3Cc3ccco3)C3CCCCC3)c(=O)[nH]c2cc1OC
 : -2	-11	-14	-1.1	3.4%	-1.9
c1coc(C2=NC(c3ccco3)C(c3ccco3)N2)c1 (centres undefined)
 : 13	1	-13	2.2	5.0%	-1.0
O=S(=O)(NCC(c1cccs1)N1CCc2ccccc2C1)c1ccccc1 (centres undefined)
 : 15	1	1	0.1	3.4%	-2.5
O=C(Nc1ccc2nc(-c3cccs3)c(-c3cccs3)nc2c1)NC1CC1
 : 32	9	6	5.7	3.1%[38.3 µM]	-0.4
Cc1ccc(NC(=O)CCNS(=O)(=O)c2cccc3nonc23)cc1
 : -12	-4	8	0.1	-1.7%	-3.2

# Sorted by value in Six1-Eya2 blk (high to low): four from the list above.
molecule	TRPML1 inh	CtBP-E1A blk	Six1-Eya2 blk	PINK1 modulator	D2 agonist
CC(=O)NC12CC3CC(C1)CC(C(=O)NCC(=O)Nc1c(C)cc(C)cc1C)(C3)C2	-7	-24	6	0.3%	-0.9
O=S(=O)(NCC(c1cccs1)N1CCc2ccccc2C1)c1ccccc1 (centres undefined)	15	1	1	3.4%	-2.5
CCOC(=O)C1(CCOC)CCN(C/C=C/c2ccccc2OC)CC1	2	-2	-7	-4.0%	0.9
COc1cc2cc(CN(Cc3nnnn3Cc3ccco3)C3CCCCC3)c(=O)[nH]c2cc1OC	-2	-11	-14	3.4%	-1.9

# Remaining list, next part.
# Results follow in this order: TRPML1 inh	CtBP-E1A blk	Six1-Eya2 blk	TRPML1 ag	PINK1 modulator	D2 agonist
CS(=O)(=O)N(CC(=O)NCCC1=CCCCC1)c1ccc2c(c1)OCO2
 : -19	-21	4	0.8	0.9%[38.3 µM]	-3.1
Cc1nn(-c2ccccc2)c(C)c1C(=O)OCC(=O)N1c2ccccc2NC(=O)C1(C)C
 : -4	1	0	-1.1	1.1%	-1.2
O=[N+]([O-])c1ccc2nc(NN=Cc3ccc(O)cc3)sc2c1
 : -9	-9	-14	0.8	-0.1%	-5.1
Cc1nc([N+](=O)[O-])cn1CCCCN1C(=O)c2ccccc2C1=O
 : x	x	-2	x	-0.1%	2.9
Cn1c(SCC(=O)c2ccccc2F)nnc1C1CC1
 : 7	-1	-1	-0.2	3.1%	-4.0
Cn1cccc1C(=O)NC(=O)COC(=O)CCNS(=O)(=O)c1ccc(Cl)cc1
 : -16	-15	-5	2.1	3.0%	0.9
CSc1cccc(NC(N)=S)c1
 : 1	-1	-3	0.0	-0.3%	-1.4
C[C@]12c3[nH]c4cc(-c5ccco5)ccc4c3CCN1C(=O)[C@@H](CC(=O)NCCC1=CCCCC1)C[C@@H]2C(=O)N1CCOCC1
 : 61	-14	-16	-0.2	8.4%	-1.5
CN(C[C@@H](Cc1cccc2ccccc12)N(C[C@H](Cc1ccccc1)N(CCc1ccccc1)N=O)N=O)N=O
 : -10	-1	10	1.5	0.1%	1.5
CC1(C)CC(CCNC(=O)c2ccco2)CC(C)(C)N1
 : -12	6	2	0.0	-1.7%	-2.3
COc1ccc(CCNC(=O)c2cc(S(=O)(=O)N3CCOCC3)ccc2N2CCCC2)cc1OC
 : 41	-1	-5	-0.5	-1.1%	-3.0
Cc1cccn2c(=O)c3cc(C(=O)NC4CCCC4)c(=N)n(CCc4ccccc4)c3nc12
 : -19	0	6	-0.2	u	-4.4
Cc1cc(S(=O)(=O)Nc2ccc(C(=O)NCC(c3ccco3)N3CCCC3)cc2)ccc1F (centres undefined)
 : 1	-1	2	0.0	-0.4%	-2.0
O=c1cc(-c2ccc(F)cc2)[nH][nH]1
 : 2	5	-2	0.9	-3.8%	-6.9
Cc1cccc(-n2cc3c(=O)n(C)c(=O)n(C)c3c2)c1
 : 41	-17	-11	1.3	-3.1%	-2.8
O=C(/C=C/c1cccnc1)c1cc(F)ccc1O
 : 7	x	4	-0.8	0.7%	-4.6
COc1ccc(CCC(=O)NNC(=O)Nc2ccc(C(C)C)cc2)cc1
 : 16	-2	0	-0.6	3.2%	-0.9
COc1ccc(/C=C/C(=O)N2CCCc3ccccc32)c(OC)c1
 : 4	-8	-7	1.9	9.3%	-5.9
O=[N+]([O-])c1ccc2oc(C(O)c3cccc(Cl)c3)cc2c1 (centres undefined)
 : 10	0	5	2.3	u	0.1
COCCN(CCOC)C(=S)Nc1cc(S(=O)(=O)N(C)C)ccc1C
 : -6	-9	7	0.4	2.0%	-2.1

# The closing two records of the part above come first, to join the parts.
# Results follow in this order: TRPML1 inh	CtBP-E1A blk	Six1-Eya2 blk	TRPML1 ag	PINK1 modulator	D2 agonist
O=[N+]([O-])c1ccc2oc(C(O)c3cccc(Cl)c3)cc2c1 (centres undefined)
 : 10	0	5	2.3	u	0.1
COCCN(CCOC)C(=S)Nc1cc(S(=O)(=O)N(C)C)ccc1C
 : -6	-9	7	0.4	2.0%	-2.1
CC(C)C12CN3CC(C(C)C)(CN(C1)C3c1ccc(Cl)cc1)C2=O (centres undefined)
 : 4	x	x	0.4	5.8%	x
O=C(CCc1cnccn1)NC1CCCc2c1cnn2-c1ccc(F)cc1F (centres undefined)
 : 1	x	1	-0.8	0.8%	1.1
Cc1ncc([N+](=O)[O-])n1CC(=O)Nc1ccc(F)cc1F
 : 1	9	2	-1.3	-0.5%	-3.0
CCN(CC(=O)Nc1c(F)cccc1F)C(=O)c1ccc(N2C(=O)c3ccccc3C2=O)cc1
 : 3	1	6	0.5	0.2%	0.3
Cc1cccc(C(=O)OCC(=O)NCCNC(=O)COC(=O)c2cccc(C)c2C)c1C
 : -1	10	-1	0.0	8.8%	-4.2
COc1cccc(S(=O)(=O)N(C)C[C@@H]2Oc3cc(Br)ccc3S(=O)(=O)N([C@@H](C)CO)C[C@@H]2C)c1
 : x	-5	-8	x	0.4%	0.3
COc1cc(NS(=O)(=O)c2ccc(Nc3nc(-c4cccc([N+](=O)[O-])c4)cs3)cc2)nc(OC)n1
 : -12	-12	u	2.0	-1.7%	-6.1
O=C(Cn1nnc(-c2ccc(Cl)cc2)n1)NCCC1=CCCCC1
 : 0	-4	-9	-0.4	u	-2.1
O=C(Cc1c[nH]c2ccccc12)NCc1ccco1
 : -9	-22	-12	-0.5	3.4%	-2.2
CCN(CC)CCN1CCN(c2cnc(C)cn2)CC1
 : 4	8	1	0.8	1.5%	-0.5
COc1ccc(-c2nnc3ccc(SCC(=O)Nc4nccs4)nn23)cc1OC
 : 8	u	u	-0.5	3.0%	1.8
CC(O)Cc1cn([C@@H](CCCCNC(=O)OC(C)(C)C)C(=O)N2CCN(C(=O)OC(C)(C)C)CC2)nn1 (some centres undefined)
 : 5	0	1	-0.2	1.5%	-1.5
Cc1cc(C(=O)NCC(=O)OCC(=O)NCCc2ccccc2)ccc1[N+](=O)[O-]
 : -15	-7	7	-0.5	-0.1%	1.6
Cc1cccc(C)c1NC(=O)COC(=O)CSc1nnc(N)s1
 : 0	1	-2	-0.4	-0.5%	-2.7
Cc1cc(-c2ccccc2)nc(N2CCN(c3ccccn3)CC2)n1
 : 6	4	9	0.6	4.8%[38.3 µM]	1.0
Cc1ccnc(N2CCC(C(=O)Nc3ccc4c(c3)OCO4)CC2)n1
 : -2	7	1	-1.5	4.8%	-2.8
Cc1cnc(C(=O)Oc2c(C)ccc(C)c2C)cn1
 : -1	-26	-5	-0.1	-0.3%	-1.8
O=C(O)c1ccc(CSc2nc3ccccc3c(=O)n2-c2ccccc2)cc1
 : x	x	1	x	-0.4%	5.6
CCCN1Cc2cccc(C(=O)NC(CC(=O)OCC)c3ccc(OCC)c(OC)c3)c2C1=O (centres undefined)
 : 9	-1	-4	0.4	5.3%	3.5
Cc1noc(C)c1COc1cccc(C(=O)OC(C)C(=O)Nc2ccc3c(c2)OCO3)c1 (centres undefined)
 : -4	-5	-11	0.7	u	0.2
Cc1nc(NC(=O)CSc2nc3cccnc3n2Cc2ccccc2)sc1C
 : 54	1	0	2.9	5.6%	2.6
O=C(NCc1ccccc1)c1cccnc1Sc1ccccc1
 : 8	6	8	-0.1	2.7%	-1.2
COc1cc2c(cc1OC)CN(C(=O)c1cc(C3CC3)nn1-c1ccccc1)CC2
 : -10	-14	-13	2.2	1.4%	4.6
CCCCn1c(N)c(N(CC(C)C)C(=O)c2c(-c3ccccc3)noc2C)c(=O)[nH]c1=O
 : 35	1	6	0.6	0.9%	-2.4
O=C(NCc1cccnc1)c1csc([C@@H]2C[C@H](O)[C@@H](CO)O2)n1
 : x	-2	-2	-0.2	1.2%	-5.3
CC(=O)NCCNc1nc2cc(-c3ccccc3)sc2c(=O)n1C
 : x	-14	-3	-0.9	1.6%	-2.8
COc1ccccc1-n1c(SCC(=O)O)nc2c(sc(=S)n2-c2ccc(Cl)c(C)c2)c1=O
 : 7	x	-13	1.4	0.9%	0.1
COc1ccc(S(=O)(=O)N(CC(=O)NN=C2CCN(C)CC2)c2cc(Cl)ccc2OC)cc1OC
 : -5	-1	4	0.0	-0.3%	-5.6
N#CC(=C=[N-])/C=C(\C(=O)c1ccccc1)[n+]1ccccc1
 : -24	-2	-3	-0.1	-1.5%	0.1
Nc1ccccc1C(=O)Nc1cccc(C(=O)O)c1
 : -3	3	4	0.4	x	0.4
CCN(C(=O)c1cc2cc3ccc(OC)cc3nc2o1)c1cccc(C)c1
 : 8	x	x	-0.6	0.7%	x
O=C(CCC1N=C2c3ccccc3N=C(SCc3ccccc3Cl)N2C1=O)NCCc1ccccc1 (centres undefined)
 : -14	x	x	-0.4	2.3%	x
Cc1ccc(C(=O)/C=C/c2cn(CC(O)CN3CCOCC3)c3ccccc23)cc1 (centres undefined)
 : 6	-16	-4	5.0	-0.4%	1.8
O=C(CSc1cn(CC(=O)N2CCCC2)c2ccccc12)Nc1ccccc1C(F)(F)F
 : 4	x	x	1.0	-0.8%	x
O=C(Nc1nccs1)c1ccc(Cl)c([N+](=O)[O-])c1
 : 14	-8	-2	1.0	-0.6%	-3.2

# One compound at a time (already shown). Order of values: TRPML1 inh, CtBP-E1A blk, Six1-Eya2 blk, TRPML1 ag, PINK1 modulator, D2 agonist
# O=C(CCC1N=C2c3ccccc3N=C(SCc3ccccc3Cl)N2C1=O)NCCc1ccccc1 (centres undefined) reads -14, x, x, -0.4, 2.3%, x
# CCN(C(=O)c1cc2cc3ccc(OC)cc3nc2o1)c1cccc(C)c1 reads 8, x, x, -0.6, 0.7%, x
